Screens: PubChem, several laboratories
CSC inhib: blocks cancer stem cells; AID 2717; inhibition, % at 7.5 µM; actives 1.1% (n = 300,000); cancer stem cell-like cells viability, luminescence;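 active = mean at 75% or more and at least half the replicates too; inconclusive = mean and replicates disagree; tested in HMLE shEcad cells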;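 note: 0% = median of negative and 100% = median of positive control wells; the first replicate is given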
PABP polyA inh: PABP-poly(A) binding inhibition | P11940 | PABP-poly(A) RNA binding, fluorescence polarization | inhibition, % at 35 µM | actives 1% (n = 290,000) | AID 2014;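 active = 50% or more with normal probe brightness, or confirmed in later tests; inconclusive = above 50% with abnormal brightness, or retests that disagree; inactive = below 50% or failed in later tests; about a fifth of its hits are not listed in these tables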;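 note: calls also rest on retests at 20 µM and on dose response follow-up; controls were probe without protein and protein plus probe with vehicle; some compounds called inactive have numbers as strong as hits; many hits fall short of the cut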
MT1-MMP act inh: MT1-MMP (human) activation inhibition. GFP/RFP ratio change, % at 20 µM. HT1080 RFP-PRO-GFP cells, GFP/RFP ratio fluorescence, overnight; percent of plate control window, DMSO zero. actives 0.061% (n = 360,000). P50281;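 active = GFP/RFP ratio change of at least 30% with cell ATP level not reduced by more than half and red fluorescence within 50% of control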; note: strong numbers were not always called active
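Test system: HT1080 cells expressing an RFP-PRO-GFP fluorescent reporter construct / Compound dosing: single-point 20 µM compound, 1% DMSO / Schedule: cells overnight before dosing, compound overnight, 37 °C, 5% CO2 / Evaluation: GFP/RFP fluorescence ratio / Control set: DMSO and RFP-L50D-GFP cell wells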
Rce1 inhib: blocks yeast Ras-converting enzyme. Q03530. calls only. yeast membranes, quenched prenylated peptide cleavage fluorescence. actives 0.27% (n = 290,000). AID 2563;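 active = fall in fluorescence gain of 50% or more versus controls, with final raw signal at or below 3038400; inconclusive = same 50% fall but final raw signal above 3038400; inactive = fall in fluorescence gain under 50%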;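 note: plate controls were neutral control wells for no effect and wells lacking membranes for full effect; tested at 10 µM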
Target sequence (Q03530 whole entry, looked up): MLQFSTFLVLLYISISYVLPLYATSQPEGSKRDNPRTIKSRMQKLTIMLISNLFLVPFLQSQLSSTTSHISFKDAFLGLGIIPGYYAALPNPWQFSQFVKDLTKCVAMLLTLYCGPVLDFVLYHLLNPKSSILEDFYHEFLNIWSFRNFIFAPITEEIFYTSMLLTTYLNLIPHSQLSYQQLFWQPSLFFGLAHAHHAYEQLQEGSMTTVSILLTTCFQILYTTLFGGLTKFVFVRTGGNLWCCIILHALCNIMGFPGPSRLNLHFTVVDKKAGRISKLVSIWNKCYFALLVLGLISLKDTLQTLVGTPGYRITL
Env fusion inh: HIV envelope-mediated fusion inhibition | actives 1.1% (n = 360,000) | inhibition, % at 12.3 µM | HeLa-JRFL Env/CEM21 cell fusion, luciferase;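 active = mean replicate inhibition score of at least 50 and every replicate individually at or above 50; inconclusive = only one of the two criteria met; inactive = mean below 50 and not all replicates reaching 50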;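 note: 0% = plate neutral controls and 100% = maraviroc near 300 nM; one replicate is shown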
eIF4H inh: inhibitors of RNA binding by human eIF4H; Q15056; eIF4H fluorescence polarization binding assay; inhibition, % at 35 µM; actives 0.94% (n = 290,000); AID 2012;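 active = 50% or more with normal probe brightness, or confirmed in later tests; inconclusive = above 50% with abnormal brightness, or retests that disagree; inactive = below 50% or failed in later tests; about a fifth of its hits are not listed in these tables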;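 note: calls also rest on retests at 20 µM and on dose response follow-up; 0% = protein and probe with vehicle and 100% = probe without protein; strong numbers were not always called active; many hits fall short of the cut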
UUG fidelity: yeast start codon fidelity modulation; S. cerevisiae UUG-firefly luciferase reporter, luminescence/redox ratio; activity score, % at 18.7 µM; AID 602363; actives 0.13% (n = 350,000);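 active = replicate mean at a twofold rise or more, about +100% in these data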;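 note: firefly luciferase made from a UUG start codon reports start codon fidelity; reporter light over untreated wells divided by growth signal over untreated wells; some hits fall short of that in this replicate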
MT1-MMP act inh RFP: further read-out of MT1-MMP act inh, marked with its call; RFP signal change, %; measured here: RFP expression control read;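 0 = vehicle wells; hits needed this value within 50% of zero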
Active calls of the source: *; i = inactive; ? = inconclusive; . = not tested or not shown.

The line under a structure holds: CSC inhib	PABP polyA inh	MT1-MMP act inh	MT1-MMP act inh RFP	Rce1 inhib	Env fusion inh	eIF4H inh	UUG fidelity
> CCOC(=O)C1=C(N)n2c(s/c(=C\c3ccco3)c2=O)=C(C(=O)OC(C)C)C1c1ccco1 (centres undefined)
 : 27	-4	-13	8	i	.	?	-14
> CCN1CCN(CC(=O)NC2CCCCC2)C(=O)C1=O
 : -8	4	-3	5	i	7	5	-13
> O=C(COc1ccc(-n2ccnc2)cc1)Nc1cccc(Cl)c1
 : 16	-4	-3	-28	i	37	-11	.
> CCOc1ccc(C(=O)NCc2ccco2)cc1
 : 40	15	-1	4	i	12	8	-18
> O=C(CNC(=O)c1ccccc1F)N/N=C/c1cccnc1
 : -24	2	-4	-8	i	-11	-14	-21
> COc1cccc(OCCn2cc(C(C)=O)c3ccccc32)c1
 : 17	22	5	-29	.	8	-3	2
> CCCCCCCc1c(O)nc(SCCN(C)C)[nH]c1=O
 : -9	11	-1	4	i	0	-6	-22
> O=C(COC(=O)CCc1nc2ccccc2s1)Nc1ncc(Cl)cc1Cl
 : -11	-4	-8	2	i	-12	20	-11
> COc1cc2nc(/C=C/c3cc(OC)c(OC)c(OC)c3)sc2cc1SC
 : 44	-4	-6	-12	.	27	4	.
> COc1ccc(N2C(=O)CC(Sc3nc(C)cc(C)n3)C2=O)cc1OC (centres undefined)
 : -10	1	2	2	i	-61	-6	1
> O=C(COC(=O)c1ccc(Cl)cc1)NCC1CCCCC1
 : 11	.	-1	1	.	12	.	.
> Cc1ccc(N(CC(=O)NN=C2CCN(C)CC2)S(=O)(=O)c2ccc(C)cc2)cc1
 : 0	-11	3	-2	i	7	-29	2
> Oc1ccccc1CNn1cnnc1
 : -10	-8	2	2	i	.	0	.
> COc1ccc(C(=O)OCC[N+]2(C)CCOCC2)cc1
 : -12	-12	-2	4	i	-9	4	-4
> Cc1cccc(C)c1NC(=O)C1(N2C(=O)CC2c2ccccc2)CCCCC1 (centres undefined)
 : -16	-2	0	4	i	35	-1	.
> CCOC(=O)c1n[nH]n(-c2cc(Cl)cc(Cl)c2)c1=O
 : -3	-12	-1	2	.	-12	-8	-15
> O=C(CN(CC(=O)N1CCOCC1)S(=O)(=O)c1ccc(Br)s1)N1CCOCC1
 : -16	.	1	0	i	.	.	.
> COc1cccc(OCC(=O)NNC(=O)c2cnccn2)c1
 : 6	8	-1	3	i	-21	-11	.
> COc1ccc(-c2nc3ccc(Cl)cn3c2Cc2ccccc2C(F)(F)F)cc1OC
 : .	.	2	-1	.	-2	.	-12
> Cc1cc(=O)oc2cc(NC(=O)c3ccccc3Cl)ccc12
 : 16	9	-1	3	i	-46	0	-22

Additional results:
The line under a structure holds: CSC inhib	PABP polyA inh	MT1-MMP act inh	MT1-MMP act inh RFP	Rce1 inhib	Env fusion inh	eIF4H inh	UUG fidelity
> COc1ccc(C)cc1NC(=O)c1c([N+](=O)[O-])cnn1C
 : -27	3	-1	-1	i	-52	4	-7
> CN(C(=O)COC(=O)c1nc(Cl)ccc1Cl)c1ccccc1
 : -11	-2	-2	4	i	.	6	-18
> COc1ccc(CNC(=O)Cn2nc(C(F)(F)F)cc2C)cc1
 : 5	-6	2	5	.	3	-7	-9
> CSCCC(=O)N(C)CC1CCN(CCc2cccc(C(F)(F)F)c2)CC1
 : -10	-5	2	2	i	4	-1	-22
> O=C(Nc1nnc([C@@H]2C[C@H](O)[C@@H](CO)O2)s1)Nc1ccccc1C(F)(F)F
 : .	.	-2	-1	.	1	.	-9
> O=C1C=C(NCc2ccc(Cl)c(Cl)c2)CC1
 : 3	-10	3	5	i	.	-13	.
> CN(CCC#N)C(=O)COC(=O)c1cc(Cl)cc(Cl)c1N
 : 4	10	-3	2	?	21	-7	.
> CC(=O)C1=C(O)C(=O)N(c2ccc(Br)cn2)C1c1ccccc1F (centres undefined)
 : -10	16	-2	-3	i	.	22	-16
> O=[N+]([O-])c1cc(-n2cnnn2)ccc1N1CCC(Cc2ccccc2)CC1
 : 52	-2	20	4	i	13	-5	-7
> S=c1[nH]nc(Cn2cnc3ccccc32)n1-c1ccccc1
 : -3	-6	4	1	i	9	1	-7
> O=C(CSc1ncn[nH]1)NCCc1ccc(Cl)cc1Cl
 : -12	2	1	3	i	0	-3	-20
> O=C(NCc1ccncc1)C1CCN(S(=O)(=O)c2cccc(C(F)(F)F)c2)CC1
 : .	9	0	2	i	-7	-13	-13
> COc1cccc(-n2c(N)c(-c3nc4ccccc4[nH]3)sc2=S)c1
 : -4	-1	1	4	i	-11	11	.
> COc1cccc2c(=O)n(CC(=O)Nc3ccc(F)cc3)ccc12
 : -9	-8	1	4	i	4	-10	1
> CC1(c2ccccc2)NC(=O)N(CC(=O)Nc2ccc3c(c2)CCC3)C1=O (centres undefined)
 : 2	.	0	5	.	.	.	-10
> S=C(NCc1ccccc1)Nc1cccc(Cl)c1
 : -4	5	3	-3	i	21	-6	.
> O=C(CSc1ncccn1)NCc1ccc2c(c1)OCO2
 : 10	1	2	-1	i	1	2	-14
> O=C(Nc1ccccc1C(=O)NCCc1ccc(O)cc1)c1ccco1
 : -3	18	-1	-1	i	4	1	-7
> O=C(Nc1sc2c(c1C(=O)O)CCCC2)C(=O)N1CCOCC1
 : -1	3	-2	3	i	-4	1	-12
> O=C(NC1CC1)c1ccc2c(Cl)c3c(nc2c1)CCCC3
 : 5	-10	1	2	i	-21	-6	-8

Further structures:
The line under a structure holds: CSC inhib	PABP polyA inh	MT1-MMP act inh	MT1-MMP act inh RFP	Rce1 inhib	Env fusion inh	eIF4H inh	UUG fidelity
> COc1ccc(OCc2nnc(SC(C)C(=O)Nc3ccc(N4CCOCC4)cc3)n2C)cc1 (centres undefined)
 : .	.	0	-6	.	-2	.	-11
> O=C1CCC(C(=O)N2CCc3ccccc3C2)CN1CCCN1CCOCC1 (centres undefined)
 : 4	5	-4	0	i	-2	7	-15
> COc1ccc(OC)c(CCNC(=O)CN2C(=O)CCSc3ccccc32)c1
 : -23	-2	0	-5	i	10	-6	-4
> Clc1cccc(NCc2ccccc2)n1
 : -4	-13	-5	1	i	10	-4	.
> O=[N+]([O-])c1cccc(S(=O)(=O)c2ccc(NCCO)c([N+](=O)[O-])c2)c1
 : -14	5	2	-3	i	3	6	-7
> Cc1nnc(SCC(=O)Nc2nsc(-c3ccc(C(C)(C)C)cc3)n2)s1
 : 8	0	-2	-4	i	-168	-11	-20
> Cc1nc(SCC(=O)Nc2ccccn2)n[nH]1
 : -17	-8	3	4	i	-2	-9	.
> COc1ccc(CCCc2nnc(SCC(=O)Nc3ccccc3F)o2)cc1
 : -8	-4	1	0	i	19	-1	.
> Nc1cc(N)nc(SCC(=O)NCC(=O)Nc2ccc(F)c(F)c2F)n1
 : -7	.	0	1	.	15	.	9
> O=C(O)C1CC=CCC1C(=O)Nc1cccnc1 (centres undefined)
 : 6	0	-1	1	i	8	-1	-14
> Cc1c(NC(=O)c2cc(C(C)C)on2)c(=O)n(-c2ccccc2)n1C
 : -10	4	10	4	i	.	-2	.
> Cc1ccc(CNc2ccc3nnc(-c4ccccc4)n3n2)cc1
 : -9	11	2	2	i	41	15	-4
> CCOC(=O)C1CCCN(C(=O)c2cc3cc4ccc(OC)cc4nc3o2)C1 (centres undefined)
 : -17	3	3	3	i	.	-11	-13
> CC(=O)NC(CCS(C)(=O)=O)C(=O)Nc1ccccc1 (centres undefined)
 : -6	-11	3	3	i	15	0	-20
> COc1ccccc1N1CCN(C(=O)c2ccc3noc(-c4ccccc4)c3c2)CC1
 : .	.	1	1	.	6	.	-19
> COc1ccc(C)cc1NC(=O)CCNC(=O)c1ccco1
 : 0	2	-3	-4	i	9	-1	3
> OC1CCCN(C(=S)NCc2ccccc2)C1 (centres undefined)
 : 10	4	0	4	.	2	6	.
> CC(C)C(OC(=O)c1ccco1)C(=O)NC1CCCCC1 (centres undefined)
 : -10	-1	1	6	i	-25	-4	-5
> O=c1c(-c2cccc([N+](=O)[O-])c2)[n+]([O-])c2ccccc2n1O
 : 6	18	2	5	i	4	-16	.
> COc1ccc2nc(/N=C(\N)NC(=O)C(C)(C)C)nc(C)c2c1
 : 1	-9	2	-1	i	.	1	-13

Continuation.
The line under a structure holds: CSC inhib	PABP polyA inh	MT1-MMP act inh	MT1-MMP act inh RFP	Rce1 inhib	Env fusion inh	eIF4H inh	UUG fidelity
> COc1ccc(CCC(=O)Nc2cccc(S(=O)(=O)N3CCCCCC3)c2)cc1
 : .	.	-4	-11	.	9	.	-8
> COC(=O)c1c(NC(=O)c2ccccc2)sc(C(N)=O)c1C
 : .	-9	-2	0	i	-5	25	.
> O=C(O)c1cc2cccc(S(=O)(=O)N3CCCCC3)c2cc1O
 : -18	9	-5	0	i	-4	-1	-15
> CCN(c1ccccc1)c1nc(Cl)nc2c1cnn2C
 : .	.	-3	-6	.	10	.	8
> COc1ccccc1NC(=O)CSc1nccc(=O)[nH]1
 : 9	-5	-3	-5	i	.	-13	0
> O=C(NC(=S)Nc1ccc2oc(=O)ccc2c1)c1ccco1
 : 1	-4	5	4	i	-8	-10	-10
> O=C(CSC(=S)N1CCOCC1)c1ccccc1
 : 13	22	-1	0	i	13	5	-41
> O=C(NCC1CCCO1)c1ccccc1S(=O)(=O)c1ccc([N+](=O)[O-])cc1 (centres undefined)
 : -13	4	1	8	i	2	-1	.
> CC1CCN(C(=O)CCc2ccc(S(=O)(=O)NC(C)C)cc2)CC1
 : -3	-8	2	4	i	.	-5	-19
> CC[n+]1c(P(=O)([O-])c2ccccc2)[nH]c2ccccc21
 : 6	-13	3	3	.	-75	-6	-13
> COc1ccc(C2(O)CC3CCC(C2)N3c2cc(C)nc(-c3ccccc3)n2)cc1 (centres undefined)
 : 18	-8	-7	-8	i	.	0	-5
> Cn1ccnc1/C(=N\NC(=O)c1ccccc1)c1cccc([N+](=O)[O-])c1
 : -6	-20	13	7	i	10	-4	.
> CCOC(=O)C1(CC2CCCCO2)CCN(Cc2cc3ccccc3[nH]2)CC1 (centres undefined)
 : .	3	-14	0	i	-22	10	.
> COCCN=C1NN=C(c2ccc(C)c([N+](=O)[O-])c2)CS1
 : 4	-2	2	4	.	15	-14	-31
> Cc1cc(NS(C)(=O)=O)c(=O)n(Cc2c(F)cccc2Cl)c1
 : -5	-8	-3	0	i	-6	-14	-7
> CNC(=O)c1cc(S(=O)(=O)N2CC(C)OC(C)C2)ccc1N1CCCCC1 (centres undefined)
 : .	-5	4	1	i	-1	0	9
> Cc1cc(C)c(COCc2cc(/C=N/O)c(C)cc2C)cc1/C=N/O
 : 25	1	-4	-13	i	.	-11	-12
> CCOC(=O)c1sc2nc(CSc3ccccc3)nc(N3CCCN(C)CC3)c2c1C
 : 31	-7	-20	-7	i	30	0	.
> COCCCNC(=S)N/N=C/c1ccc(N(C)C)cc1
 : -6	-12	0	5	i	-25	12	.
> O=C(CNC(=O)c1ccco1)N/N=C/c1ccccc1[N+](=O)[O-]
 : -12	-20	1	5	i	7	3	.

Other structures
The line under a structure holds: CSC inhib	PABP polyA inh	MT1-MMP act inh	MT1-MMP act inh RFP	Rce1 inhib	Env fusion inh	eIF4H inh	UUG fidelity
> CCN(CC)CC1(O)CCN(C(=O)c2ccc(Cl)c(Cl)c2)CC1
 : -3	-7	1	4	i	10	0	.
> O=C(COC(=O)CCSc1ccccc1)Nc1cc(F)ccc1F
 : -6	-2	4	3	i	12	-3	.
> COC(=O)c1ccc(N2C(=O)CC(N3CCC(O)(c4ccc(Br)cc4)CC3)C2=O)cc1 (centres undefined)
 : -10	-10	-2	-4	i	1	-9	.
> O=[N+]([O-])c1ccc(F)c(N=Cc2ccc(Br)s2)c1
 : 1	-5	1	0	i	-12	-3	.
> Cc1ccc(CNc2nc3ccccc3n2C)cc1
 : -11	-6	5	-1	.	-27	-12	-37
